LANA-H2A inh: blocks KSHV LANA binding to histone H2A/H2B; Q9QR71; cell-free LANA-H2A/H2B peptide, fluorescence polarization; inhibition, % (test concentration not listed); hit rate 0.6% among 320,000; in the data active = inhibition mostly above about 10%, no sharp cut-off; inactive = mostly below about 6.7%;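 note: stock transfer was 7.5 nL into about 10 µL; 0% = median of vehicle wells and 100% = median of positive control wells; one replicate is shown; the record names a cut of 25% in any replicate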
Bfl-1 A1 inh: inhibitors of the anti-apoptotic protein A1, read as caspase activation | MEF A1-2A-BIM cells, Caspase-Glo 3/7 luminescence, 3 h; percent of clofoctol response, vehicle zero | caspase activation, % (test concentration not listed) | hit rate 0.066% among 330,000 | AID 2462;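 active = over half of replicate activation scores above 10%, or exactly half above 10 with the replicate mean above 10; inconclusive = replicate mean below 10 yet half the replicates above 10; inactive = over half of replicates below 10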;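 note: wells of about 30 µL received 50 nL stock; many hits fall short of the cut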
Vif TR-FRET: HIV-1 Vif–A3G interaction blockers – biochemical, TR-FRET, GST-Vif 1-94, biotin-A3G peptide, dose response retest, primary screen (AID 1117319) | TR-FRET GST-Vif / biotin-A3G peptide binding; higher % means a stronger effect; test concentration not given here; strong numbers were not always called active | inhibition, %; hits with a dose series show IC50 in µM | hit rate 0.57% among 260,000;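 active = above the screen mean plus three standard deviations and confirmed in dose response; inconclusive = results disagree or hit not tested in dose response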;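 note: Vif residues 1-94 fused to GST binding biotinylated APOBEC3G peptide 110-148; 0% = full assay without inhibitor and 100% = GST in place of GST-Vif; retest series ran down from 100 µM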
Beta2AR agonist: agonists of human beta-2 adrenergic receptor inducing internalization; P07550; response, % (no concentration beside the values); Am2.2-beta2AR cells, FAP receptor internalization, flow cytometry; reference of the scale not given here; AID 504454; hit rate 0.43% among 340,000;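 active = response above a set limit, near 3 SD of response in nonfluorescent compounds, cut at about 42% in these data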;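 note: stock transfer was 100 nL into about 11 µL; a reference agonist was the positive control; negative values mostly stem from fluorescent compounds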
UCH37 inh: blocks the human deubiquitinase UCH37 | purified proteasome/UCH37, Ub-AMC cleavage fluorescence | hit rate 0.33% among 330,000 | Q9Y5K5 | inhibition, % (test concentration not listed);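 active = mean of two replicates above 20%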;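 note: 0% = compound-free wells with enzyme and 100% = wells lacking proteasome; stock transfer was 100 nL into about 20 µL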
Target sequence (Q9Y5K5 whole entry, looked up): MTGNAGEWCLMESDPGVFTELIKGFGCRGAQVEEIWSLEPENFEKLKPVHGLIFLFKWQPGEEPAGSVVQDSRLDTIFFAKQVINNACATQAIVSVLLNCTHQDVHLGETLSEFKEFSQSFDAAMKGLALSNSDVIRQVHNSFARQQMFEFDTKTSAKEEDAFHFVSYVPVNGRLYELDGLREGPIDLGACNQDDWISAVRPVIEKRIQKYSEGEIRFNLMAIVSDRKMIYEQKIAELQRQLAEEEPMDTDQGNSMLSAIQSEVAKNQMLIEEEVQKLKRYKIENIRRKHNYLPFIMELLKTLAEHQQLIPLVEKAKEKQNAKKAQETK
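Signal – fluorescence, ex 355 nm, em 460 nm · System – Proteasome-bound UCH37 · Input – 0.15 nM proteasome as dispensed · Timing – 30 min preincubation with enzyme, 25 min cleavage at room temperature · Read-out basis – percent inhibition of cleavage signal versus uninhibited and no-proteasome wells · Medium – Tris-HCl pH 7.4 with ATP-MgCl2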
Ecoli growth: blocks Escherichia coli growth. hit rate 0.21% among 330,000. OD600, 23 h; active compounds read low. OD600 absorbance (test concentration not listed);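 active = OD600 absorbance below the run mean of sample wells minus 3.6 SD, in any replicate, cut at about 0.56 in these data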;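 note: stock transfer was 300 nL into about 60 µL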
HNF4A DNA FP: change in binding of human HNF4 alpha to DNA. P41235. HNF4a-FITC DNA binding, fluorescence polarization, 1 h. activity change, % at 10 µM. hit rate 0.3% among 360,000; in the data active = activity change above about 30%, passing the limit was not always enough;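 note: controls were the assay level and a saturating level of protein; the project sought stronger binding though the title names inhibitors; some compounds called inactive have numbers as strong as hits; positive values seem to mean higher polarization but the record does not say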
Target sequence (P41235 whole entry, looked up): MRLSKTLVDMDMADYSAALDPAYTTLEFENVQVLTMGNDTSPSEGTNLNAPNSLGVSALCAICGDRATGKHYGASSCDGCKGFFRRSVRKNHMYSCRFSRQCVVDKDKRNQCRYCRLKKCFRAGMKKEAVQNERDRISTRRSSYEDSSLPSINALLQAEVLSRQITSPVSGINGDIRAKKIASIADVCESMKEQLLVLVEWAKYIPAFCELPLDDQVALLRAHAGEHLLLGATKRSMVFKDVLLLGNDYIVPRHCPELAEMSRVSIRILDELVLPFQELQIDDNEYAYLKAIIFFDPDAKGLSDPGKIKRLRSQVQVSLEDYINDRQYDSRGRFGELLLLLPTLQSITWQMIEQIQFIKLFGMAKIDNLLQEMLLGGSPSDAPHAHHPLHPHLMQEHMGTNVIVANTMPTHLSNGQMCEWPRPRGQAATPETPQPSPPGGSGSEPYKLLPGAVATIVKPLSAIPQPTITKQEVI
Numbers without * were called inactive; i = inactive; ? = inconclusive; . = no result given; & = joins results of further samples.

SMILES	LANA-H2A inh	Bfl-1 A1 inh	Vif TR-FRET	Beta2AR agonist	UCH37 inh	Ecoli growth	HNF4A DNA FP
CN1CCN(C(=S)Nc2cccc(C(F)(F)F)c2)CC1	1.4	0.7	.	3	2.3	0.66	-0.6
O=C(O)[C@H]1CCC(=O)N1Cc1ccco1	0.5	-0.5	1%	-6	-5.6	0.71	-0.4
CCCOC(=O)c1c(NC(=O)C2C3C=CC(C3)C2C(=O)O)sc2c1CCC(C)C2 (stereo not drawn)	-3.4	0.1	.	1	-6.7	0.66	-3.1
C/C(CC(=O)NC(C)C)=N\NC(=O)C(c1ccccc1)c1ccccc1	6.5	-0.1	6%	6	.	.	8.9
CCN(CC)CCN(C(=O)c1ccc(S(=O)(=O)N(C)C2CCCCC2)cc1)c1nc2ccc(OC)cc2s1	108*	-0.6	-1%	-1	-1.0	0.73	-3.8
CCOc1ccc(NC(=O)CN(C)C(=O)Cn2c(=O)cnc3ccccc32)cc1OCC	-5.2	-0.1	17%	-6	1.6	0.68	0.8
O=C(CS(=O)(=O)Cc1ccccc1)NCc1ccco1	1.2	0.8	-15%	2	2.2	0.74	-1.4
N/C(=N\OC(=O)c1ccccc1Cl)c1ccc(Cl)cc1	0.7	-5.7	12%	-18	2.2	0.81	1.4
O=C(NCCN1CCOCC1)c1cc2c(=O)n3ccccc3nc2n1Cc1ccccc1	-1.1	0.5	1%	-10	i	0.71	-0.5
Cc1cccc(NC(=O)c2ccc3c(Cl)c4c(nc3c2)CCCC4)n1	-0.4	-6.9	-13%	8	-8.7	0.74	-0.8
O=C(O)C1CC=C(Cl)CC1C(=O)NC1CCCCC1 (stereo not drawn)	2.8	-0.2	.	-1	1.4	0.69	-3.4
O=C(CNC(=O)c1ccc(Cl)cc1Cl)NCc1ccccn1	0.8	-0.6	.	5	0.2	0.64	-2.5
CCOc1ccc(C(=O)NC2CCN(C(=O)Nc3ccc(F)cc3)CC2)cc1	-2.6	0.7	6%	-7	2.0	0.71	4.2
CCOc1ccc(C2/C(=C(\O)c3cccc(OC)c3)C(=O)C(=O)N2c2ccccn2)cc1OC (stereo not drawn)	9.4	-0.5	32%	-1	12	0.62	-1.6
O=C(/C(C=Nc1ccc(Br)cc1)=C(/O)c1ccco1)C(F)(F)F	-3.3	-5.9	.	-1	3.7	0.66	1.3
CCOc1ccccc1Nc1nnc(SCC(=O)Nc2cccc(S(=O)(=O)NC3=NCCCCC3)c2)s1	3.4	-0.6	-5%	2	5.8	0.72	-0.7
COc1ccc(CCC(C)N2CCc3ccccc3C2)cc1 (stereo not drawn)	-5.3	-0.9	-3%	-3	0.6	0.67	0.9
COc1ccc(-c2cc(C(=O)Nc3cccc(Cl)c3)no2)cc1	4.2	-3.3	-4%	-2	-0.9	0.66	-3.6
CN(CC(O)Cn1c2ccccc2c2ccccc21)S(C)(=O)=O (stereo not drawn)	-2.2	-0.6	1%	10	-0.2	0.72	-0.9
O=[N+]([O-])c1ccc(Cl)cc1Sc1cccc2cccnc12	5.1	-0.6	12%	-8	-3.9	0.73	-1.7
CCOc1ccc(NC(=S)N(CCCN2CCCC2)Cc2cccn2Cc2ccc(Cl)cc2)cc1	-8.4	-0.4	3%	-2	5.9	0.67	0.8
Cc1cc(NCCC(C)C)n2nc(C)c(-c3ccccc3)c2n1	1.4	0.1	3%	16	-62	0.73	-0.4
CC(=O)c1ccccn1	1.0	0.7	.	0	4.9	0.72	-1.0
COCCN=C1Sc2nc3cc(C)c(C)cc3cc2CN1Cc1cccs1	3.1	0.4	-9%	-1	3.6	0.76	-3.1
O=C(CN(Cc1ccc(F)cc1)C(=O)CNS(=O)(=O)c1ccc(F)cc1)NCc1ccco1	1.0	-0.7	.	2	2.1	0.69	0.5
O=C(C(Cc1ccccc1)N1C(=O)C2C3C=CC(C3)C2C1=O)N1CCCCCC1 (stereo not drawn)	-3.9	0.4	2%	15	6.7	0.68	2.2
CC(C)[C@H](NC(=O)N1CCn2c1nc1ccccc12)C(=O)NCc1ccc(F)cc1	-1.8	-0.3	.	-1	4.8	0.67	0.6
CCN(CC)C(=O)CSc1nnc(-c2cccc(OC)c2)o1	1.6	-0.8	-1%	6	0.8	0.71	0.6
Cc1ccc(-n2nc3c(n2)/C(=N/O)CC/C3=N\O)cc1	8.6	-15	14%	7	.	.	1.1
O=C(O)C1CC=CCC1C(=O)Nc1ccc2c(c1)CCC2 (stereo not drawn)	-3.1	-0.9	-8%	0	3.7	0.7	2.6
CN(C)CCNc1ncnc2ccccc12	-6.9	.	-3%	-5	1.7	0.66	1.2
CC1CC(C)CN(C(=S)Nc2ccc(OC(F)F)cc2)C1 (stereo not drawn)	2.7	0.1	-3%	3	2.3	0.62	2.9
O=C(Nc1ccc(O)cc1)c1c(O)c2c([nH]c1=O)CCCC2	.	.	-5%	-7	-2.7	0.74	-0.5
COCCNc1c2c(nc3c(-c4ccccc4)c(C)nn13)CCCC2	-6.1	0.3	5%	-5	-13	0.7	-2.3
NC(=O)COC(=O)CC12CC3CC(CC(Br)(C3)C1)C2	-0.5	1.5	10%	10	2.1	0.71	3.6
O=C(CN1C(=O)c2ccccc2S1(=O)=O)N1CCN(c2ccc(F)cc2)CC1	1.8	-0.1	9%	11	2.2	0.71	9.3
COc1ccccc1OCCN1C(=O)S/C(=C\c2ccco2)C1=O	-7.7	0.3	?	-3	4.3	0.69	5.1
Cn1cc(CNC(=O)C2c3ccccc3Oc3ccccc32)cn1	2.0	1.1	-1%	-5	-2.6	0.64	-2.9
O=C(Nc1nc(-c2cc3ccccc3o2)cs1)c1ccc(S(=O)(=O)N2CCCC2)cc1	3.0	-0.2	-26%	15	-5.8	0.75	-1.3
Cc1cccc(NS(=O)(=O)c2ccc(C(=O)N3CC(C)OC(C)C3)cc2)c1C (stereo not drawn)	4.6	0.7	6%	-2	-1.8	0.64	-1.5
C/C(=N\NS(=O)(=O)c1ccc(C)cc1)c1ccc(C)o1	-0.7	0.2	-1%	5	.	.	-2.2
COc1ccc(/C=C2\CCc3c2nc2ccccc2c3C(=O)O)cc1OC	1.9	-4.1	29%	10	.	.	-36
Cc1ccc(C(=O)c2ccccc2C(=O)Nc2ccccc2)cc1	-2.6	0.3	.	9	-1.7	0.68	0.5
CN1CCN(S(=O)(=O)c2ccc(NC(=O)c3cccs3)cc2)CC1	-5.3	-0.7	3%	-11	-0.6	0.73	-2.7
c1cc(-c2cccs2)nc(-c2cccs2)c1	-2.9	-0.5	7%	0	-34	0.65	-4.6
Cc1cccc(-n2c(C)cc(/C=N/O)c2C)c1	1.5	0.0	4%	-4	.	.	-0.6
CC(=O)Nc1ccc(S(=O)(=O)N(Cc2ccco2)Cc2cc3ccccc3[nH]c2=O)cc1	3.3	0.5	.	106*	-3.1	0.68	1.5
CC(NC(=O)C1CCC(CNc2c(N3CCOCC3)c(=O)c2=O)CC1)c1ccccc1 (stereo not drawn)	5.8	0.0	1%	3	4.9	0.67	-1.9
Cn1c(=O)c2c(nc(NCC3CCCO3)n2C)n(C)c1=O (stereo not drawn)	-1.9	0.5	-8%	-9	5.3	0.71	1.4
CCOC(=O)C1(C)/C(=N/Nc2ccccc2Cl)C(=O)C(=O)N1c1ccccc1 (stereo not drawn)	4.3	0.0	3%	4	7.2	0.68	-0.2
CN(C)c1ccc(S(=O)(=O)N2CCC(Cc3ccccc3)CC2)cn1	-1.1	-0.8	.	-12	0.6	0.71	2.7
Nc1nonc1C(=O)NCCNS(=O)(=O)c1ccc(Br)cc1	-0.5	-3.1	5%	7	2.5	0.64	-4.8
c1ccc(Cn2nnnc2C(c2cccs2)N2CCOCC2)cc1 (stereo not drawn)	1.7	-0.3	1%	-1	0.9	0.76	-3.0
O=C(CCNS(=O)(=O)c1ccc(Br)cc1)NCCc1ccc(Cl)cc1	-2.0	-1.2	.	-12	6.3	0.65	-3.1
CCCCN(C(=S)SC)C1CCS(=O)(=O)C1 (stereo not drawn)	1.0	0.3	-3%	-2	-0.3	0.68	2.1
O=C(Nc1ccc(Cl)cc1)C1CC(=O)n2c(nc3ccccc32)N1 (stereo not drawn)	-4.9	0.0	.	8	0.0	0.69	0.7
COc1ccc(OC)c(-n2nnnc2SCC(=O)Nc2ccccc2OC)c1	-0.5	-0.2	-4%	5	2.3	0.68	0.0
O=C(NC1CCCC1)c1cccc2c1C(=O)c1ccc(Cl)cc1S2(=O)=O	1.7	0.1	.	-9	12	0.63	-4.5
CCOC(=O)N/N=C\C=C\c1ccc2c(c1)OCO2	0.7	-3.6	.	0	.	.	-1.7
CC1COC(=O)C(NNc2ccc(Cl)c(Cl)c2)=N1 (stereo not drawn)	7.0	-0.7	0%	5	7.7	0.6	2.7
Other entries.
SMILES	LANA-H2A inh	Bfl-1 A1 inh	Vif TR-FRET	Beta2AR agonist	UCH37 inh	Ecoli growth	HNF4A DNA FP
COc1ccc(OC)c(N(C(=O)c2ccco2)C(C(=O)NC2CCCC2)c2ccc(N3CCOCC3)cc2)c1 (stereo not drawn)	19	-0.6	.	1	2.5	0.7	-1.2
COc1ccc(-c2cc(C(=O)N3CCN(Cc4ccccc4)CC3)no2)cc1OC	9.0	-0.6	0%&2%	4	1.0	0.68	1.7
CC1(C)C2CCC1(C(=O)O)c1nc3ccccc3nc12 (stereo not drawn)	1.5	0.3	5%	0	0.0	0.63	2.5
Cn1nc(C(C)(C)C)cc1C(=O)NNC(=O)c1ccccc1Cl	2.6	1.6	2%	-3	4.8	0.7	5.7
O=[N+]([O-])c1ccc(SCc2ccncc2)nc1	3.7	1.2	-2%	-9	8.5	0.68	0.3
CC1(C)CC(NC(=O)COc2ccc([N+](=O)[O-])cc2)CC(C)(C)N1	0.7	-0.3	-1%	-4	4.4	0.69	0.2
O=C(Nc1ccc(Cl)c(C(F)(F)F)c1)C1CCCN(S(=O)(=O)c2cnc[nH]2)C1 (stereo not drawn)	-0.4	1.0	0%	8	2.0	0.73	-3.0
Cc1cc(C)c(NC(=O)Cn2nnc(C(=O)NCc3ccc4c(c3)OCO4)c2N)c(C)c1	0.9	1.2	-1%	-9	2.0	0.69	-1.1
CCOc1ccccc1OCCCOc1ccc([N+](=O)[O-])cc1Cl	1.0	0.2	-11%	-5	-2.6	0.79	-0.8
COc1ccccc1CN(C)c1ccc(S(=O)(=O)N2CCN(C)CC2)cn1	6.8	1.0	6%	-5	0.2	0.66	0.8
CCCOC(=O)c1ccc(Oc2c(-c3ccc(OC)cc3O)n[nH]c2C)cc1	-9.9	0.7	3%	11	1.8	0.71	1.2
CCOC(=O)C1=C(C)NC(=S)NC1c1ccc(C)s1 (stereo not drawn)	3.9	0.4	-3%	5	4.8	0.73	-1.2
COc1cc(OC)c2c(c1C(CCN1CCOCC1)c1ccc(N(C)C)cc1)OC(=O)CC2c1ccc(N(C)C)cc1 (stereo not drawn)	-8.7	1.4	-2%	11	2.9	0.71	-0.8

Sorted by SMILES length (descending): 5 of the compounds above
SMILES	LANA-H2A inh	Bfl-1 A1 inh	Vif TR-FRET	Beta2AR agonist	UCH37 inh	Ecoli growth	HNF4A DNA FP
CCOc1ccc(C2/C(=C(\O)c3cccc(OC)c3)C(=O)C(=O)N2c2ccccn2)cc1OC (stereo not drawn)	9.4	-0.5	32%	-1	12	0.62	-1.6
Cc1cccc(NS(=O)(=O)c2ccc(C(=O)N3CC(C)OC(C)C3)cc2)c1C (stereo not drawn)	4.6	0.7	6%	-2	-1.8	0.64	-1.5
O=C(NC1CCCC1)c1cccc2c1C(=O)c1ccc(Cl)cc1S2(=O)=O	1.7	0.1	.	-9	12	0.63	-4.5
Cc1ccc(-n2nc3c(n2)/C(=N/O)CC/C3=N\O)cc1	8.6	-15	14%	7	.	.	1.1
O=C(O)C1CC=C(Cl)CC1C(=O)NC1CCCCC1 (stereo not drawn)	2.8	-0.2	.	-1	1.4	0.69	-3.4
